Compound activity as filed in PubChem.
AmpC nodet inh – inhibitors of E. coli AmpC beta-lactamase without detergent; P00811; AmpC nitrocefin hydrolysis, absorbance 480 nm, no detergent; potencies from a single point are estimates; Potency, µM (top dose mostly 28.7 µM), inactives show top-dose activity change, negative = inhibition; actives 1.8% (n = 71,000); active = falling curve, for most hits resting on a single point; inconclusive = weak or doubtful change; inactive = flat or rising curve; note: % of control where 0% means no effect; about half of the hits show no inhibition at the top dose; a quarter of the inactives give rising signals
Target sequence (P00811 whole entry, looked up): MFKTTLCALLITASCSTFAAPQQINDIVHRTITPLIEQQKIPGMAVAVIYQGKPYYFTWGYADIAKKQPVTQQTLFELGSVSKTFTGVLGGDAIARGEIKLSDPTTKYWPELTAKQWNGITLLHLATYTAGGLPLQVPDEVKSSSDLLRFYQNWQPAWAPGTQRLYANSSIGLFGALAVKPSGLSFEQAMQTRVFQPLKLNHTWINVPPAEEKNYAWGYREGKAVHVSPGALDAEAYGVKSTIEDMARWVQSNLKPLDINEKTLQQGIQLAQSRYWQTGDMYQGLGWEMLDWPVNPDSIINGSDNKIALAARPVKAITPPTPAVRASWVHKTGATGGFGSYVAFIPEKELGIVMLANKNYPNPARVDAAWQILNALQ
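Enzyme, pH 7.0 phosphate. Compound titrations were pre-incubated with AmpC for 15 min at room temperature before nitrocefin (stock 800 uM) addition; product formation was recorded at 480 nm every 20 s for 4 min.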
* hit, by the source's call; & = joins results of further samples; [ ] = remark or other dose. Potency is the fitted concentration of half-maximal effect. Not all compounds are listed; rates above refer to the full screens.

Results for CC1CCCCN1C(=O)c1ccccc1NC(=O)c1ccco1 (centres undefined) ?
AmpC nodet inh: -6%

Results for C=CCn1c(SCC(=O)Nc2nc3ccccc3s2)nnc1-c1ccccc1O ?
AmpC nodet inh: -10%

How did CCn1c(N)c(C(=O)NCc2ccc3c(c2)OCO3)sc1=S do in these assays?
AmpC nodet inh: -10%

What do the screens show for `O=C(NCC1CCCO1)c1cccc(N2CCCC2=O)c1` (centres undefined)?
AmpC nodet inh: -12%

What do the screens show for `O=C(c1cccs1)N1CCN(C2CCN(Cc3ccccc3)CC2)CC1`?
AmpC nodet inh: 3%

What do the screens show for `CC(=O)C1=C(O)C(=O)N(CCC(=O)O)C1c1cccc(F)c1` (centres undefined)?
AmpC nodet inh: -9%

Results for COc1ccc(N=C2C(=O)Nc3ccccc32)cc1 ?
AmpC nodet inh: -5%

How did Fc1ccc(Br)cc1/C=N/n1cnnc1 do in these assays?
AmpC nodet inh: -16%

Results for COc1ccc(N=C(C)c2c(O)n(C)c(=O)n(C)c2=O)c(OC)c1 ?
AmpC nodet inh: 78%

How did CCOC(=O)c1ccccc1NC(=O)Nc1ccc(OC)c(OC)c1 do in these assays?
AmpC nodet inh: 11%

How did O=C(O)CSCCn1cccn1 do in these assays?
AmpC nodet inh: -2%

What do the screens show for `COC(=O)C1=C(N)Oc2cc(N(C)C)ccc2C1c1ccccc1OC` (centres undefined)?
AmpC nodet inh: 44%

What do the screens show for `Cc1ccc(OCC(=O)Nc2nnn(C)n2)c(C)c1`?
AmpC nodet inh: 1%

How did O.O.[NH-]C1(C(=O)O)CCCC1.[NH-]C1(C(=O)O)CCCC1.[Ni+2] do in these assays?
AmpC nodet inh: -10%[5.75 µM]

How did CN=C=O do in these assays?
AmpC nodet inh: 4%

Results for O=C(CNC(=O)c1ccccc1F)NC1CC1 ?
AmpC nodet inh: 1%

Results for COc1cccc(C2CC(c3cccc(C)c3)n3ncnc3N2)c1 (centres undefined) ?
AmpC nodet inh: 19%

Results for O=C(c1ccco1)N1CCN(C(=O)c2cccc3c2C(=O)N(C2CCCCC2)C3)CC1 ?
AmpC nodet inh: 23%

Results for CSc1nc(-c2ccco2)nn1S(=O)(=O)c1ccc(C)cc1 ?
AmpC nodet inh: -19%

How did CCOc1ccc(-c2nnc(-c3cccs3)o2)cc1OCC do in these assays?
AmpC nodet inh: 122%

Reprinted from the part before: seven entries; new compounds follow.
How did O.O.[NH-]C1(C(=O)O)CCCC1.[NH-]C1(C(=O)O)CCCC1.[Ni+2] do in these assays?
AmpC nodet inh: -10%[5.75 µM]

How did CN=C=O do in these assays?
AmpC nodet inh: 4%

Results for O=C(CNC(=O)c1ccccc1F)NC1CC1 ?
AmpC nodet inh: 1%

Results for COc1cccc(C2CC(c3cccc(C)c3)n3ncnc3N2)c1 (centres undefined) ?
AmpC nodet inh: 19%

Results for O=C(c1ccco1)N1CCN(C(=O)c2cccc3c2C(=O)N(C2CCCCC2)C3)CC1 ?
AmpC nodet inh: 23%

Results for CSc1nc(-c2ccco2)nn1S(=O)(=O)c1ccc(C)cc1 ?
AmpC nodet inh: -19%

How did CCOc1ccc(-c2nnc(-c3cccs3)o2)cc1OCC do in these assays?
AmpC nodet inh: 122%

What do the screens show for `CCOC(=O)N1CC=C2C(C#N)=C(N)C(C#N)(C#N)[C@H](c3ccsc3)[C@H]2C1`?
AmpC nodet inh: -9%

Results for O=C(Cc1c(C(=O)O)[nH]c2ccccc12)NC1CCN(Cc2ccccc2)CC1 ?
AmpC nodet inh: 6%

What do the screens show for `Cn1c(=O)c2c(nc(N3CCCCC3)n2CCSc2nc3ccccc3s2)n(C)c1=O`?
AmpC nodet inh: 124%

How did O=c1[nH]cnc2[nH]ncc12 do in these assays?
AmpC nodet inh: -4%&6%

Results for C[C@H](CN(C)C)C(=O)c1ccccc1C(=O)O ?
AmpC nodet inh: -3%[5.75 µM]

Results for COc1ccc(CN2CC(C(=O)NCCCN3CCOCC3)CC2=O)cc1 (centres undefined) ?
AmpC nodet inh: -3%

Results for COc1ccc(C(c2sc3nc(C)nn3c2O)N2CCN(CCO)CC2)cc1OC (centres undefined) ?
AmpC nodet inh: 14%

What do the screens show for `Cc1ccc(NC(=O)C2CCCN(S(=O)(=O)c3cnc[nH]3)C2)cc1C` (centres undefined)?
AmpC nodet inh: -3%

How did Cc1ccc(NC(=O)CSc2nnc(C3CCCCC3)n2N)cc1F do in these assays?
AmpC nodet inh: 33%

What do the screens show for `Cc1cc(NC(=O)Nc2ccc(N(C)C)cc2)c2cc(F)cc(F)c2n1`?
AmpC nodet inh: 0%

An excerpt from above in order of SMILES length, low to high.
Results for COc1ccc(C(c2sc3nc(C)nn3c2O)N2CCN(CCO)CC2)cc1OC (centres undefined) ?
AmpC nodet inh: 14%

What do the screens show for `Cc1ccc(NC(=O)C2CCCN(S(=O)(=O)c3cnc[nH]3)C2)cc1C` (centres undefined)?
AmpC nodet inh: -3%

What do the screens show for `CCOC(=O)N1CC=C2C(C#N)=C(N)C(C#N)(C#N)[C@H](c3ccsc3)[C@H]2C1`?
AmpC nodet inh: -9%

Next part
Results for CCOC(=O)CNC(=O)C(CO)NC(=O)OCc1ccccc1 (centres undefined) ?
AmpC nodet inh: 35%

How did O=S(=O)(NCCO)c1cc[c]([Sb](=[O])([OH])[OH])cc1 do in these assays?
AmpC nodet inh: -11%[5.75 µM]

Results for CCNc1nc(NC(C)C)nc(N(C#N)Cc2ccccc2)n1 ?
AmpC nodet inh: 20%

What do the screens show for `OC1(c2cccc(C(F)(F)F)c2)CCN(c2ncnc3c2[nH]c2ccc(F)cc23)CC1`?
AmpC nodet inh: -18%

How did CCOC(=O)C1(Cc2ccc(O)cc2)NC(c2ccco2)C2C(=O)N(c3ccccc3F)C(=O)C21 (centres undefined) do in these assays?
AmpC nodet inh: 33%

How did Cn1c(N)c(C(=O)NCc2ccccc2Cl)sc1=S do in these assays?
AmpC nodet inh: -17%

Results for Cc1ccc(C(=O)CSC2=C(C#N)C(c3ccco3)C3=C(CC(C)(C)CC3=O)N2)cc1 (centres undefined) ?
AmpC nodet inh: -7%

How did Cc1cccc(NC(=O)COc2nsnc2N2CCOCC2)c1 do in these assays?
AmpC nodet inh: 5%

How did Cc1ccccc1-c1nc(CS(=O)CC(=O)N2CCC3(CC2)OCCO3)c(C)o1 (centres undefined) do in these assays?
AmpC nodet inh: 46%

What do the screens show for `Cc1nc(C)c(C(=O)C2=C(O)C(=O)N(CCN3CCOCC3)C2c2ccco2)s1` (centres undefined)?
AmpC nodet inh: 17%

Retrieved by compound from the list above, 2 records:
What do the screens show for `CCOC(=O)N1CC=C2C(C#N)=C(N)C(C#N)(C#N)[C@H](c3ccsc3)[C@H]2C1`?
AmpC nodet inh: -9%

What do the screens show for `Cc1cc(NC(=O)Nc2ccc(N(C)C)cc2)c2cc(F)cc(F)c2n1`?
AmpC nodet inh: 0%

(listing goes on)
What do the screens show for `O=c1[nH]c(N2CCc3ccccc32)nc2c1CCCC2`?
AmpC nodet inh: 24%

Results for CC(C)NC(=O)CN(C(=O)CCC(=O)Nc1ccccn1)c1ccc(F)c(Cl)c1 ?
AmpC nodet inh: 54%

How did CCOC(=O)C1CCN(C(=O)CCn2c(=O)[nH]c3ccsc3c2=O)CC1 do in these assays?
AmpC nodet inh: 16%

How did CCC(=O)Nc1c(C)c(CC)nc2ccccc12 do in these assays?
AmpC nodet inh: -2%

What do the screens show for `CCN1C(=O)N[C@@H](c2ccccc2)C1=O`?
AmpC nodet inh: 8%[12.8 µM]

How did O=c1cc(CN2CCC3(CC2)OCCO3)c2c(ccc3ccccc32)o1 do in these assays?
AmpC nodet inh: 65%

What do the screens show for `CC(=O)Nc1ccc2nc(-c3ccccn3)[nH]c2c1`?
AmpC nodet inh: 5%

Results for N#Cc1cc2c(nc1SCc1nc3ccccc3[nH]1)CCC2 ?
AmpC nodet inh: inconclusive

How did O=C(CN1CCc2ccccc2C1)c1cccs1 do in these assays?
AmpC nodet inh: 0%

What do the screens show for `COc1ccc(C2C3=C(Nc4ncnn42)c2ccccc2CC3)cc1OC` (centres undefined)?
AmpC nodet inh: 54%

What do the screens show for `N#CC1=C(N)Oc2cc(N)ccc2C1C1CC=CCC1` (centres undefined)?
AmpC nodet inh: -17%

What do the screens show for `Cc1ccc2c(c1)nnn2C1CCN(C(=O)C2CCCCC2)CC1`?
AmpC nodet inh: 29%

How did O=C(Nc1ccc2nn(-c3ccccc3)nc2c1)c1ccc2c(c1)OCCO2 do in these assays?
AmpC nodet inh: -15%

Results for CC1CCCCC12NC(=O)N(CC(=O)NCCc1ccccn1)C2=O (centres undefined) ?
AmpC nodet inh: 0%

What do the screens show for `O=C(CCCn1c(=O)c2sccc2n(CC(=O)NCc2ccco2)c1=O)NCc1ccco1`?
AmpC nodet inh: -8%

How did COc1ccc(C(c2nnnn2Cc2cccs2)N2CCN(c3ccc(F)cc3)CC2)cc1OC (centres undefined) do in these assays?
AmpC nodet inh: 94%

How did O=C(O)CNC1=NCCCCC1 do in these assays?
AmpC nodet inh: -3%

What do the screens show for `CC12COC3(C(=O)Nc4cccnc4)CC1CCC32C` (centres undefined)?
AmpC nodet inh: 3%

How did CC(C)C(=O)N(Cc1cc2ccccc2[nH]c1=O)C(C)C do in these assays?
AmpC nodet inh: 82%

What do the screens show for `CC(C)(CNC(=O)c1cccs1)CNC(=O)c1cccs1`?
AmpC nodet inh: 16%

What do the screens show for `Cn1c(=O)c2c(nc(SCCN3CCOCC3)n2Cc2ccccc2)n(C)c1=O`?
AmpC nodet inh: 98%

What do the screens show for `O=C1COc2ccc(OCc3ccc(F)cc3)cc21`?
AmpC nodet inh: -6%

Results for O=C(Nc1cccc(F)c1)N1CC2(CCN(C(=O)c3csnn3)CC2)C1 ?
AmpC nodet inh: 4%

Results for CC(C)C[C@H](NP(=O)(O)O[C@@H]1O[C@@H](C)[C@@H](O)[C@@H](O)[C@H]1O)C(=O)N[C@@H](Cc1c[nH]c2ccccc12)C(=O)O ?
AmpC nodet inh: 7%

What do the screens show for `CSc1nsc(SCc2ccc(F)cc2)n1`?
AmpC nodet inh: -2%

Results for CCc1cc2c(=O)c(-c3nc4ccccc4n3C)coc2c(CN2CCOCC2)c1O ?
AmpC nodet inh: 7%

How did CCNC(=O)CCC(=O)Nc1cc(Cl)ccc1C do in these assays?
AmpC nodet inh: -3%

How did Cc1cc(O)c(C(C)C)cc1NC1=NS(=O)(=O)c2ccccc21 do in these assays?
AmpC nodet inh: -7%

How did CCN(CC)CCOC(=O)c1ccc(NC(=O)COc2cc(=O)n(CC)c3ccccc23)cc1 do in these assays?
AmpC nodet inh: 91%

How did O=C(NC1CCCC1)C(c1ccccc1)N(C(=O)c1ccno1)c1cccnc1 (centres undefined) do in these assays?
AmpC nodet inh: 12%

Results for Nc1nc(CN2CCOCC2)cs1 ?
AmpC nodet inh: -9%

Results for Cc1cc2nc3c(nc2cc1C)C1(C(=O)O)CCC3(C)C1(C)C (centres undefined) ?
AmpC nodet inh: -8%

What do the screens show for `NC(=O)C1CCN(C(=O)N2c3ccccc3Sc3ccccc32)CC1`?
AmpC nodet inh: 125%

Results for CCOC(=O)c1c(NC(=O)CSc2nc3c(c(=O)n(C)c(=O)n3C)n2CC)sc(C)c1C ?
AmpC nodet inh: 118%

How did Cc1cccc(C)c1OCc1nnc(SCC(=O)Nc2ccccc2F)o1 do in these assays?
AmpC nodet inh: 9%

How did Cc1cc(C(=O)N2CCC3(CC2)OCCO3)cs1 do in these assays?
AmpC nodet inh: -10%

What do the screens show for `COCCCn1c(SCC(=O)N2CCCCC2C)nnc1-c1ccco1` (centres undefined)?
AmpC nodet inh: 14%

Results for O=C(N1CCOCC1)C(F)(F)C(F)(F)C(F)(F)C(F)(F)C(=O)N1CCOCC1 ?
AmpC nodet inh: 13%

How did COC(=O)N(C)CCCC1(C)C(=O)N(C)c2ccc(O)cc21 (centres undefined) do in these assays?
AmpC nodet inh: -6%

Results for CC(=O)N1CCc2cc(S(=O)(=O)NCCC(=O)Nc3cc(C)cc(C)c3)ccc21 ?
AmpC nodet inh: 4%

What do the screens show for `O=S(=O)(c1cccc2cnccc12)N1CCNCC1`?
AmpC nodet inh: 9%

How did CCC(C(=O)NCc1ccco1)N(C(=O)CNS(=O)(=O)c1ccc(C)cc1)c1ccccc1OC (centres undefined) do in these assays?
AmpC nodet inh: 32%

Results for COc1cccc(C2=CC(c3cccc(OC)c3OC)n3nnnc3N2)c1 (centres undefined) ?
AmpC nodet inh: 21%

What do the screens show for `O=C(O)c1ccccc1S(=O)(=O)NCC(O)COC1CCCCC1` (centres undefined)?
AmpC nodet inh: 12%

How did CCCCCSc1nncc(=O)[nH]1 do in these assays?
AmpC nodet inh: -19%

What do the screens show for `CCc1c(C)c(C#N)c2nc3ccccc3n2c1N(C)C`?
AmpC nodet inh: 10%

What do the screens show for `CC1Oc2ccccc2N(CC(=O)N(Cc2ccccc2)Cc2ccccn2)C1=O` (centres undefined)?
AmpC nodet inh: 51%

What do the screens show for `c1ccc2c(c1)OCC(c1nnc3sc(-c4cnccn4)nn13)O2` (centres undefined)?
AmpC nodet inh: 4%

What do the screens show for `CCOC(=O)C(NC(C)=O)(Nc1ccc(F)cc1)C(F)(F)F` (centres undefined)?
AmpC nodet inh: 12%

How did CCOC(=O)N1CCN(C(=O)C(C)n2nc(C)n3c(cc4sccc43)c2=O)CC1 (centres undefined) do in these assays?
AmpC nodet inh: inconclusive
